# Compound activity as filed in PubChem.
# FGF22 binding: binders of human FGF22 protein, primary screen, FGF22 synaptogenesis inhibitor project, biophysical, thermal shift, single point; recombinant FGF22 thermal shift, SYPRO orange fluorescence; percent of sucrose octasulfate shift, DMSO zero; calls only at 9.99 µM; Fibroblast growth factor 22 (Homo sapiens), Q9HCT0; 1.5% of 340,000 active; AID 651658, 2012;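 active = melting point raised past a set limit in the mean and every replicate; three in four hits are not shown here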
# B2AR ag: beta2AR agonists driving receptor internalization, primary screen, cell-based, FAP fluorogen, flow cytometry | Beta-2 adrenergic receptor (Homo sapiens), P07550 | 0.43% of 340,000 active | AID 504454, 2011 | response, % (no concentration beside the values) | Am2.2-beta2AR cells; reference of the scale not given here;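 active = response above a set limit, near 3 SD of response in nonfluorescent compounds, cut at about 42% in these data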;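 note: stock transfer was 100 nL into about 11 µL; a reference agonist was the positive control; negative values mostly stem from fluorescent compounds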
# UCH37 inh: inhibitors of human UCH37 deubiquitinase, primary screen, biochemical, Ub-AMC cleavage, fluorescence | 0.33% of 330,000 active | Ubiquitin carboxyl-terminal hydrolase isozyme L5 (Homo sapiens), Q9Y5K5 | inhibition, % (no concentration beside the values) | purified proteasome/UCH37;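 active = mean of two replicates above 20%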;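 note: 0% = compound-free wells with enzyme and 100% = wells lacking proteasome; stock transfer was 100 nL into about 20 µL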
#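 System: Proteasome-associated human UCH37 deubiquitinase; Input: 0.15 nM proteasome in added enzyme buffer; Also added: Ub-AMC substrate from 1 µM stock; Incubation: 30 min compound-proteasome preincubation then 25 min substrate reaction, room temperature; Detection: fluorescence, ex 355 nm, em 460 nm; Read-out: % inhibition of Ub-AMC cleavage fluorescence; Benchmarks: no-proteasome and no-compound wells.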
# HNF4A DNA FP: change in binding of human HNF4A to DNA, primary screen, biochemical, fluorescence polarization, FITC-DNA. activity change, % at 10 µM. 0.3% of 360,000 active. 1 h; in the data active = activity change above about 30%, passing the limit was not always enough;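 note: controls were the assay level and a saturating level of protein; the project sought stronger binding though the title names inhibitors; some compounds called inactive have numbers as strong as hits; positive values seem to mean higher polarization but the record does not say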
# ALR inh: inhibitors of human ALR sulfhydryl oxidase, primary screen, biochemical, H2O2 detection, HRP-luminol luminescence, single point; inhibition, % (concentration not given with the values); purified ALR, DTT oxidation; AID 485317, 2010; 3.8% of 290,000 active; FAD-linked sulfhydryl oxidase ALR (Homo sapiens), P55789;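 active = mean and each replicate at 75% or more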;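 note: stock transfer was 7.5 nL into about 7.5 µL; 0% = neutral wells and 100% = wells with inactivated enzyme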
# Ecoli growth: E. coli growth inhibition, primary screen, OD600; OD600 absorbance (test concentration not listed); 0.21% of 330,000 active; AID 1053175, 2014; Escherichia coli growth, 23 h; hits give low values;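 active = OD600 absorbance below the run mean of sample wells minus 3.6 SD, in any replicate, cut at about 0.56 in these data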;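 note: stock transfer was 300 nL into about 60 µL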
# LANA-H2B inh: blockers of LANA interaction with H2A/H2B – biochemical, FP readout, HTS, primary screen; cell-free LANA-H2A/H2B peptide, fluorescence polarization; 0.6% of 320,000 active; inhibition, % (no concentration beside the values); Protein LANA1 (Human herpesvirus 8 type P (isolate GK18)), Q9QR71; in the data active = inhibition mostly above about 10%, no sharp cut-off; inactive = mostly below about 6.7%;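 note: stock transfer was 7.5 nL into about 10 µL; 0% = median of vehicle wells and 100% = median of positive control wells; one replicate is shown; the record names a cut of 25% in any replicate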
# Target sequence (Q9QR71 whole entry, looked up): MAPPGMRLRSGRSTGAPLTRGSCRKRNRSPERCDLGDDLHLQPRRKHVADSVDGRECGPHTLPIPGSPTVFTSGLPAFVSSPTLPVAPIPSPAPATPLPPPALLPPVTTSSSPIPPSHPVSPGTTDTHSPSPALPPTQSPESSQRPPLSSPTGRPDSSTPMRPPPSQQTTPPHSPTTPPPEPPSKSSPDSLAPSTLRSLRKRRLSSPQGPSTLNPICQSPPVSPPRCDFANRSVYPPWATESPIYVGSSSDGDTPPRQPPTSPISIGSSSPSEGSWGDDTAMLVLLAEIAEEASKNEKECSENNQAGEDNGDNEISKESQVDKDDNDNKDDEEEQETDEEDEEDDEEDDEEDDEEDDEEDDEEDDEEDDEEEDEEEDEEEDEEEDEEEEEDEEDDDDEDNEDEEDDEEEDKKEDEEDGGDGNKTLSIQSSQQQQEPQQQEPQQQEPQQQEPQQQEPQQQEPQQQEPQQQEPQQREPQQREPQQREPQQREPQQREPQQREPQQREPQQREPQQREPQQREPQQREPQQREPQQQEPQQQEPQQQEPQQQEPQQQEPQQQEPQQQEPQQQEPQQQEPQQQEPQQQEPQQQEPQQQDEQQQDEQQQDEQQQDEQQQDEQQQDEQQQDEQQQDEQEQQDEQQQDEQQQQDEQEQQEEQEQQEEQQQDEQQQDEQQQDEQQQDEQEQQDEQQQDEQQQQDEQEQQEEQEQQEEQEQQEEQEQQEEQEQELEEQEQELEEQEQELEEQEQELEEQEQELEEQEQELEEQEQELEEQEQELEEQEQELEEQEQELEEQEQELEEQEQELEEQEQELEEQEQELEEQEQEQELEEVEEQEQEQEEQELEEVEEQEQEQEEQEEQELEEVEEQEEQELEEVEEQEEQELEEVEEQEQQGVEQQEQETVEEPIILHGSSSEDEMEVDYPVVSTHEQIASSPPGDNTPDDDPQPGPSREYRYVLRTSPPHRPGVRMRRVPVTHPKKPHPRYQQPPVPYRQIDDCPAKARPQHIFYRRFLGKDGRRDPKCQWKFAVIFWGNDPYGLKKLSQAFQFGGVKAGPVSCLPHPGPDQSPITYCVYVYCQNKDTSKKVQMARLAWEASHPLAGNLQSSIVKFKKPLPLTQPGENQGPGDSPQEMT
# The depositor's hits bear a star; i = inactive; · = no result given. The list is partial; the hit share may differ from the screen's.
# Every second line gives: FGF22 binding	B2AR ag	UCH37 inh	HNF4A DNA FP	ALR inh	Ecoli growth	LANA-H2B inh
1. Cc1cccc(N(CC(=O)NCCSc2nc3ccccc3s2)S(=O)(=O)c2ccccc2)c1
  ·	·	2.2	·	0	0.67	0.7
2. COc1ccccc1NS(=O)(=O)c1cc(NC(=O)C(C)C)ccc1N1CCCCC1
  i	4	-1.5	-0.3	6	0.7	2.4
3. Cc1ccc(C)c(-c2nc3ccc(N)cc3[nH]2)c1
  ·	-3	-466	-3.9	99*	0.67	-21
4. O=C(CSc1nc2nn(-c3ccccc3)c(=O)c-2c2n1CCCCC2)Nc1ccc(OC(F)F)cc1
  i	-2	2.8	2.3	48	0.69	2.7
5. Cc1ccc(NC(=O)C(c2ccccc2)N2CCN(CC(=O)N3CCOCC3)CC2)cc1 (stereo unspecified)
  i	-8	2.9	-1.6	-3	0.73	-0.4
6. COC(=O)c1sc2ccccc2c1-n1cccc1C(=O)C(=O)Nc1ccc(C)cc1
  ·	8	2.8	10	-10	0.83	1.7
7. O=C(CCS(=O)(=O)c1ccccc1)NNC(=O)COc1ccc(F)cc1
  i	-2	-1.3	0.2	-1	0.69	4.0
8. O=C(N/N=C/c1cn(-c2cccs2)nc1-c1ccccc1)c1ccccc1O
  ·	16	·	-0.9	-13	·	-0.1
9. CCOc1cc(S(=O)(=O)NCCc2cccc(C)c2)c(OCC)cc1-n1cnnn1
  ·	-10	-52	-1.1	-5	0.68	5.0
10. Cc1ccc(NC(=S)N2CCC(NC(=O)c3cccc(F)c3)CC2)cc1
  ·	-1	0.4	0.9	4	0.63	0.2

# The closing 3 entries of the section above open the next one.
# Every second line gives: FGF22 binding	B2AR ag	UCH37 inh	HNF4A DNA FP	ALR inh	Ecoli growth	LANA-H2B inh
8. O=C(N/N=C/c1cn(-c2cccs2)nc1-c1ccccc1)c1ccccc1O
  ·	16	·	-0.9	-13	·	-0.1
9. CCOc1cc(S(=O)(=O)NCCc2cccc(C)c2)c(OCC)cc1-n1cnnn1
  ·	-10	-52	-1.1	-5	0.68	5.0
10. Cc1ccc(NC(=S)N2CCC(NC(=O)c3cccc(F)c3)CC2)cc1
  ·	-1	0.4	0.9	4	0.63	0.2
11. Cc1occc1C(=O)N/N=C/c1cccc2ccccc12
  i	7	·	1.3	2	·	8.0
12. O=C(Nc1ccccc1)Nc1ccccc1Br
  ·	4	0.7	0.5	9	0.67	0.4
13. COc1cccc(NC(=O)CN(C)C(=O)c2c(C)nn(-c3ccccc3)c2Cl)c1
  i	12	2.0	-0.3	-10	0.69	-4.3
14. CCC1S/C(=C(\C#N)C(N)=O)N(c2ccc(F)cc2)C1=O (stereo unspecified)
  ·	-6	3.6	1.3	14	0.79	-5.7
15. COc1cccc(/C=C/C(=O)N2CC(C)OC(C)C2)c1OC (stereo unspecified)
  i	-3	-0.7	0.9	-5	0.7	3.3
16. COc1ccc2cc(C(=O)Nc3ccccc3)sc(=O)c2c1OC
  i	-5	-8.8	-1.2	-2	0.68	-1.6
17. Cc1cccc(Nc2nc(NCC3CCCO3)nc(N)c2[N+](=O)[O-])c1 (stereo unspecified)
  i	-5	4.5	-1.4	4	0.72	-3.3
18. CC(c1nccs1)N(C)C(=O)c1cn(Cc2cccc3ccccc23)nn1 (stereo unspecified)
  i	-3	-1.6	0.8	1	0.71	-3.9
19. CN(C)C(CNC(=O)c1ccc2[nH]c(=O)c(=O)[nH]c2c1)c1ccco1 (stereo unspecified)
  i	-5	-41	-2.8	1	0.69	2.0
20. COc1ccc2nc(C)cc(N/N=C/c3cccc(OC)c3O)c2c1
  i	21	·	21	87*	·	-1.2
21. CCc1noc(C)c1C(=O)Nc1cc(S(=O)(=O)N(CC)CC)ccc1N1CCCC1
  i	-5	0.7	-5.0	-5	0.64	-3.2
22. CCn1c(SCC(=O)Nc2cccc(F)c2)nc2c(c1=O)SC(C)C2 (stereo unspecified)
  i	-14	5.0	3.6	·	0.72	-0.7
23. Cn1c(=O)n(-c2cccc(Cl)c2)c(=O)n1C
  ·	-1	0.6	-5.6	1	0.7	3.2
24. O=C(NCCc1nccs1)C1CCC(=O)N(CCc2ccc(Cl)cc2)C1 (stereo unspecified)
  i	14	0.9	-2.2	3	0.72	-2.6
25. CC(=O)Nc1nc2cc(N)ccc2s1
  i	-3	2.7	1.1	-26	0.69	-0.4
26. O=C(Nc1ccc(-c2cn3ccsc3n2)cc1)C1CC1
  ·	5	5.6	0.8	8	0.66	-3.2
27. CCOc1ccc(NC(=O)CSc2nnnn2C2CCCC2)cc1
  i	1	0.6	-1.3	1	0.65	-0.9
28. CCC(CC)COC(=O)C1=C(C)NC(=O)NC1c1cc(OC)ccc1OC (stereo unspecified)
  i	0	-51	-0.8	18	0.69	-16
29. Cc1nnsc1NC(=O)OCc1ccc(Cl)cc1Cl
  ·	9	3.0	1.0	-2	0.66	1.0
30. COc1ccc2[nH]c(C)c(CCN3C(=O)C4CC=CCC4C3=O)c2c1 (stereo unspecified)
  i	23	-3.5	1.9	·	0.73	-0.5
31. CCN(Cc1ccccc1)c1c(C(=O)O)cnc2c1cnn2C
  i	-6	4.5	0.7	-32	0.67	1.8
32. CN(CC(=O)Nc1ccccc1Br)C(=O)c1ccccc1OCc1ccccc1Cl
  i	10	0.1	-1.1	·	0.68	·
33. O=C(O)CCC(=O)OCCCc1cc2ccccc2c(=O)o1
  i	0	2.1	1.3	1	0.62	-1.6
34. C/C(=N\Nc1nncc2ccccc12)c1ccc(O)cc1
  i	-18	·	-1.1	6	·	12*
35. CC1CCCCC1NC(=O)CN1c2cccc3cccc(c23)S1(=O)=O (stereo unspecified)
  i	20	-22	2.1	-35	0.69	-3.9
36. CN(C(=O)c1cccc(NC(=O)Cc2ccc(NC(=O)C3CCCN(C(=O)C4CCCCC4)C3)cc2)c1)C1CCC1 (stereo unspecified)
  ·	8	-0.8	-1.9	·	0.68	·
37. Oc1[nH]c2ccccc2c1N=Nc1ccccn1
  i	-25	·	-4.8	·	·	·
38. O=C(O)c1cc(N/N=C/c2c(O)ccc3ccccc23)ccc1Cl
  ·	-1	·	-4.8	·	·	7.3
39. O=C(CNC(=O)c1ccc(Cl)cc1Cl)Nc1ccc(F)cc1
  i	1	4.3	-1.3	6	0.65	-1.2
40. COc1ccccc1N(C)S(=O)(=O)c1ccc(C(=O)Nc2cccc(S(=O)(=O)N3CCOCC3)c2)cc1
  i	9	4.2	-3.8	·	0.72	·
41. COC(=O)c1cc(CNC(=O)c2sccc2-c2ccccc2)ccc1OC
  i	0	3.8	-2.1	0	0.73	0.8
42. COc1ccc(CNC(=O)/C(C#N)=C2\N=C(NC(=O)c3cccs3)c3ccccc32)cc1
  ·	1	-16	9.7	4	0.75	1.6
43. O=C(NC(=S)Nc1ccc(Br)c(Cl)c1)C1CC1
  i	5	1.2	-1.8	-1	0.7	1.3
44. Cc1ccc(-n2ncc(-c3nnc(SCC(=O)NC4CCCC4)o3)c2N)cc1C
  ·	-5	·	-1.3	-4	·	-2.0
45. CCC(=O)Nc1ccc(Cl)c(NC(=O)c2ccc(Br)o2)c1
  ·	-8	-0.4	-4.0	-6	0.68	3.9
46. Cn1c(N)c(Sc2ccc([N+](=O)[O-])cc2)c(=O)n(C)c1=O
  i	-5	8.3	2.2	-1	0.68	-0.4
47. COc1ccc(CCC2(C)NC(=O)NC2=O)cc1 (stereo unspecified)
  i	-2	6.1	-2.0	1	0.72	-1.6
48. COc1cccc(CC2(CO)CCCN(C/C=C/c3ccccc3OC)C2)c1 (stereo unspecified)
  i	-4	4.4	2.4	·	0.67	-0.8
49. CCOc1ccc2oc(-c3ccccc3)c(C(=O)O)c2c1
  ·	5	-123	1.8	2	0.7	2.3
50. CCCOc1ccc(C(=O)NNC(=S)NC(=O)c2cc(-c3ccccc3)nc3ccccc23)cc1
  ·	6	1.1	1.6	-6	0.68	-5.9
51. CN(C)CCNS(=O)(=O)c1ccc(N2CCc3ccccc32)c([N+](=O)[O-])c1
  i	-14	9.0	3.2	7	0.69	-2.5
52. CCOn1c(=O)c(-c2ccccc2)[n+]([O-])c2ccccc21
  i	-11	-9.3	2.1	52	0.68	3.0
53. COc1ccc2cc1Oc1ccc(cc1)CC1c3c(cc(OC)c4c3Oc3cc5c(cc3O4)CCNC5C2)CCN1C (stereo unspecified)
  ·	32	1.3	100*	13	0.75	-3.2
54. CC(C)(C#CCN1CCCCC1)OCCOC(c1ccccc1)c1ccccc1
  ·	7	2.4	-4.0	-90	0.67	1.1
55. CC(OC(=O)CCCN=C1NS(=O)(=O)c2ccccc21)C(=O)N(C)c1ccccc1 (stereo unspecified)
  i	-2	1.1	-32	0	0.62	-3.8
56. CC(C)N1CCC(n2nccc2NC(=O)c2ccc3c(c2)OCO3)CC1
  i	5	0.1	2.0	-1	0.65	2.1
57. CN(C)c1ccc(P(=O)(COc2ccc([N+](=O)[O-])cc2)c2ccc(N(C)C)cc2)cc1
  i	-16	4.9	2.9	-31	0.67	-1.7
58. Cc1nc2c(C(=O)NCc3ccccc3)c[nH]n2c(=O)c1Cl
  ·	1	1.5	2.1	2	0.72	2.6
59. FC(F)(F)c1cc(NC2CCCCC2)ccn1
  i	-4	1.4	0.5	0	0.64	-6.4
60. O=C(COc1ccc(Cl)cc1)NCCSCc1ccccc1Cl
  ·	2	1.7	0.2	-17	0.66	4.0

# Following part.
# Every second line gives: FGF22 binding	B2AR ag	UCH37 inh	HNF4A DNA FP	ALR inh	Ecoli growth	LANA-H2B inh
61. COc1cc(NC(=O)COC(=O)CCc2nc3ccccc3c(=O)[nH]2)cc(OC)c1
  i	10	-1.6	3.1	0	0.66	2.8
62. CC(=O)c1cccc(NC(=O)/C(=C/c2ccco2)NC(=O)c2ccco2)c1
  i	-3	6.1	-0.5	6	0.71	5.6
63. Cc1cc(CC(C)C)n(-c2nc3ccccc3c(=O)n2OCC(N)=O)n1
  ·	6	-2.1	-3.6	-2	0.79	-2.1
64. Cn1c(=O)c2c(nc(N/N=C3\CCCc4ccccc43)n2Cc2ccc(F)cc2)n(C)c1=O
  ·	-9	·	1.0	-3	·	5.1
65. O=C(c1cc(Br)c[nH]1)N1CCCCC1
  i	-3	-1.0	1.9	·	0.66	-3.9
66. Cc1ccc2cc(CCNC(=O)C(C)(C)C)c(=O)[nH]c2c1
  i	-13	1.7	0.9	-39	0.7	4.0
67. O=C(CN1C(=O)C2CC=CCC2C1=O)N1CCN(S(=O)(=O)c2ccccc2)CC1 (stereo unspecified)
  i	-7	0.3	1.7	-1	0.66	-7.6
68. CCOC(=O)N1CCC2(CC1)C(C(=O)C13CC4CC(CC(C4)C1)C3)C2(C#N)C#N (stereo unspecified)
  ·	4	3.2	-2.4	21	0.68	7.6
69. O=C(Nc1ccc(F)cc1)Oc1ccc[nH]c1=O
  i	2	·	-2.1	-6	·	1.4
70. O=C(c1ccc(F)cc1)c1c[nH]c(C(=O)NCc2cccnc2)c1
  ·	-2	-3.1	1.9	-4	0.69	-3.0
71. COc1cccc(CNC(=O)Cn2ccc3cc(S(=O)(=O)N4CCCCCC4)ccc32)c1OC
  i	-6	0.6	4.4	7	0.67	-1.7
72. CC(C)NC(=S)N1CCN(Cc2ccc3c(c2)OCO3)CC1
  i	0	1.3	0.1	-11	0.62	1.2
73. CCC(C)[C@H](NS(=O)(=O)c1ccc(C)cc1)C(=O)N1CCC(C(=O)N[C@H](C(=O)O)c2ccccc2)CC1 (stereo partly specified)
  i	5	5.8	1.0	·	0.71	4.2
74. COc1ccccc1CN1CC(C(=O)NCc2ncccc2C)CCC1=O (stereo unspecified)
  i	4	0.7	0.4	-1	0.71	0.2
75. Cc1cc(=O)oc(C)c1C(=O)N1CCN(C)CC1
  ·	6	3.4	-4.0	-1	0.72	0.4
